# Beta apoptosis – blocks beta cell apoptosis; 0.8% of 300,000 active; INS-1E cytokine-induced death, ATP luminescence, 48 h; percent of positive-control rescue, neutral wells zero; AID 435005; protection from apoptosis, % (concentration not given with the values);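 active means all replicates at 75% or more, or half of them and the mean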;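 further: 0% = cytokine-treated negative control wells and 100% = positive control rescue; higher means more ATP so stronger rescue from cytokine killing; wells of about 40 µL received 100 nL stock; the first replicate is given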
# T cruzi repl – blocks replication of Trypanosoma cruzi; T. cruzi beta-gal in NIH3T3, luminescence, 90 h; inhibition, % (test concentration not listed); 1.4% of 300,000 active;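 active means mean inhibition across valid replicates above about 55%, limit read from the data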;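 further: signal also drops with host cell toxicity which is not excluded here; 0% = plate median of DMSO wells and 100% = zero luminescence signal; higher percent means less beta-gal luminescence so fewer parasites; stock transfer was 50 nL into about 50 µL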
# A1 inh – inhibitors of the anti-apoptotic protein A1, read as caspase activation; caspase activation, % (test concentration not listed); MEF A1-2A-BIM cells, Caspase-Glo 3/7 luminescence, 3 h; percent of clofoctol response, vehicle zero; 0.066% of 330,000 active;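 active means over half of replicate activation scores above 10%, or exactly half above 10 with the replicate mean above 10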;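 further: wells of about 30 µL received 50 nL stock; many hits fall short of the cut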
# UCH37 DUB inh – inhibitors of human deubiquitinating enzyme UCH37. Q9Y5K5. inhibition, % (test concentration not listed). 0.33% of 330,000 active. purified proteasome/UCH37, Ub-AMC cleavage fluorescence;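 active means mean of two replicates above 20%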;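 further: 0% = compound-free wells with enzyme and 100% = wells lacking proteasome; stock transfer was 100 nL into about 20 µL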
# Target sequence (Q9Y5K5 whole entry, looked up): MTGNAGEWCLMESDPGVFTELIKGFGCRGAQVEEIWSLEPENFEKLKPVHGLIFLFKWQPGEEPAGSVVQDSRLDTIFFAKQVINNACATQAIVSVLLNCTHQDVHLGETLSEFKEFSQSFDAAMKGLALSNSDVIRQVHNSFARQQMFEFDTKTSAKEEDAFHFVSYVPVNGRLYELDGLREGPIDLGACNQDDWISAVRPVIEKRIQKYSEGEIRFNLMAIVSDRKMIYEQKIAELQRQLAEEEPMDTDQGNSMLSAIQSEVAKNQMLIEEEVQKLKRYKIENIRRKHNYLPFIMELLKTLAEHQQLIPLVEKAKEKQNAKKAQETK
#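 Signal – fluorescence, ex 355 nm, em 460 nm · System – Proteasome-bound UCH37 · Input – 0.15 nM proteasome as dispensed · Timing – 30 min preincubation with enzyme, 25 min cleavage at room temperature · Read-out basis – percent inhibition of cleavage signal versus uninhibited and no-proteasome wells · Medium – Tris-HCl pH 7.4 with ATP-MgCl2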
# FGF22 binding – FGF22 (human) thermal shift binding | 1.5% of 340,000 active | calls only at 9.99 µM | recombinant FGF22 thermal shift, SYPRO orange fluorescence; percent of sucrose octasulfate shift, DMSO zero | Q9HCT0;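 active means melting point raised past a set limit in the mean and every replicate; three in four hits are not shown here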
# Target sequence (Q9HCT0 whole entry, looked up): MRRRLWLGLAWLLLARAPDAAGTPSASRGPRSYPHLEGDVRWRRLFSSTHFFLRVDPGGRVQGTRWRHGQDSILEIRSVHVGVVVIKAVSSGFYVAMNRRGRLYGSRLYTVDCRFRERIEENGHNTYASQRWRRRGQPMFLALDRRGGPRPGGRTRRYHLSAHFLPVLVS
# rRNA inh HTS – inhibits bacterial ribosomal RNA function over humanized ribosomes; 1.6% of 350,000 active; AID 720706; E. coli WT GFP vs humanized-ribosome RFP mutants, fluorescence, 24 h; hits give low values; DMSO median 0, no signal -100; GFP signal change (wild-type ribosome), % (no concentration beside the values);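 active means significant combined selectivity score with lowered wild-type GFP, culture density cut under 30%, mutant RFP and density less affected; inactive means any of these conditions unmet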; further: one replicate is shown; some compounds called inactive have numbers as strong as hits
# E coli growth – blocks Escherichia coli growth; OD600, 23 h; hits give low values; OD600 absorbance (test concentration not listed); 0.21% of 330,000 active; AID 1053175;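 active means OD600 absorbance below the run mean of sample wells minus 3.6 SD, in any replicate, cut at about 0.56 in these data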;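 further: stock transfer was 300 nL into about 60 µL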
# AF4-AF9 inh – blocks AF4 peptide binding to human AF9 | inhibition, % at 10 µM | 0.47% of 350,000 active | P42568 | AlphaScreen, biotin-AF4 peptide binding to FLAG-AF9 | AID 651704;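 active means every replicate reaching a set inhibition limit, whatever the replicate mean, cut at about 25% in these data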;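 further: 0% = plate neutral control median and 100% = total signal loss; the record names both 10 and 1 µM as test concentration; the first replicate is given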
# Target sequence (P42568 whole entry, looked up): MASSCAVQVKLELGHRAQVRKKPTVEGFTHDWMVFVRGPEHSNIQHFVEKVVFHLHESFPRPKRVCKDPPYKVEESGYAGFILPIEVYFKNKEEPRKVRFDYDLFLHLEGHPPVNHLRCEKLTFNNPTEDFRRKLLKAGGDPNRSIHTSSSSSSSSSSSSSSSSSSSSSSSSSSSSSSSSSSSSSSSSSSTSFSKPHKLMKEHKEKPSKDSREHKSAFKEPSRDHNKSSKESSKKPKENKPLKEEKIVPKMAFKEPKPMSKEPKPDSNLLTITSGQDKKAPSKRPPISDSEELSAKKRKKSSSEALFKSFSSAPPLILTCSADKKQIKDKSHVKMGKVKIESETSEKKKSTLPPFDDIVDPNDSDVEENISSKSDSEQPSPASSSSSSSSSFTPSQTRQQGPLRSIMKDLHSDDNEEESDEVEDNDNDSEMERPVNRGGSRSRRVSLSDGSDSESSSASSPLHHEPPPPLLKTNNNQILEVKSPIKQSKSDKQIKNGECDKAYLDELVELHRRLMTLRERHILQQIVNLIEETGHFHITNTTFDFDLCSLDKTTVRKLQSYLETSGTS
# rRNA inh HTS OD600 – further read-out of rRNA inh HTS, marked with its call; OD600 change, %; measured here: OD600 growth;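 optical density of the mix in the first replicate; 0 = DMSO median and -100 = no signal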
# rRNA inh HTS RFP – also measured in rRNA inh HTS; calls as there; RFP signal change, %; measured here: RFP humanized mutant strains;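 first replicate; 0 = DMSO median and -100 = no signal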
# Active calls of the source: *; i = inactive; . = not tested or not shown; + = active, no number. Not all compounds are listed. The share of hits here may be higher or lower than overall.
SMILES,Beta apoptosis,T cruzi repl,A1 inh,UCH37 DUB inh,FGF22 binding,rRNA inh HTS,rRNA inh HTS OD600,rRNA inh HTS RFP,E coli growth,AF4-AF9 inh
Cc1ccc(C2c3c(oc4ccccc4c3=O)C(=O)N2c2nnc(C(C)C)s2)o1 (centres undefined),-4,2,-0.6,1.5,.,-6,-5,-1.7,0.8,-0.9
Cc1cc(C(F)(F)F)nn1CC(=O)N1CCCC1,-3,-8,-1.0,2.4,.,.,.,.,0.75,.
CCOc1cc(C(=O)N(CC)CC(=O)Nc2ccc3c(c2)OCCO3)ccc1OC,-4,.,0.5,0.4,i,21,13,8.1,0.66,1.3
CCOC(=O)C1CCN(Cc2ccc(-c3ccccc3)cc2)CC1,-1,-9,0.7,3.0,i,-8,-8,-2.1,0.7,2.8
CCCCC(NC(=O)c1ccc(Cl)cc1)C(=O)O (centres undefined),-1,10,-1.1,5.3,.,.,.,.,0.72,.
C=CCn1c(SCc2ccc(C#N)cc2)nnc1-c1cccc(OC)c1,.,-2,0.7,1.1,.,.,.,.,0.75,.
CCOP(=O)(OCC)c1nc(-c2cccc3ccccc23)oc1N1CCCCC1,1,31,-0.4,i,i,-44,-41,27,0.62,-20
O=c1cc(NCCc2ccccc2)c2ccccc2o1,22,-13,0.0,0.6,i,8,2,0.1,0.69,1.4
CCCOc1ccc(CNC(=O)Cn2ncc3ccccc32)cc1,-2,-3,-2.0,1.4,i,-1,9,-3.9,0.71,2.0
O=C(COC(=O)c1ccccc1C(=O)N1CCN(c2ccc(F)cc2)CC1)NCc1ccccc1,0,8,0.2,0.7,.,.,.,.,0.7,.
COc1cccc(NC(=O)CN(C)C(=O)c2ccc(NC3CC3)c([N+](=O)[O-])c2)c1,-1,.,0.3,3.4,+,-8,-18,3.4,0.63,3.5
Cc1ccc(C)c(OCCC(=O)OCC(=O)Nc2cc(S(=O)(=O)N3CCCCC3)ccc2C)c1,-3,.,-2.4,0.2,i,.,.,.,0.7,0.2
CN(CCC#N)S(=O)(=O)c1cc2c3c(c1)CCN3C(=O)CC2,-3,-17,0.0,2.7,i,4,4,-1.0,0.71,-0.1
CC1CCN(C(=O)CSc2nnc(Cc3cccn3C)n2CCc2ccccc2)CC1,3,15,0.4,1.3,i,1,0,2.4,0.69,1.5
CCC/C(C#Cc1cc(OC)cc(OC)c1)=C1/c2ccccc2C(=O)N1c1ccccc1,1,.,1.4,3.9,i,-6,1,0.4,.,4.5
COc1ccccc1C(=O)N1CCN(Cc2nc(CC3CC3)no2)CC1,-3,-8,-1.1,2.2,i,.,.,.,0.71,-1.3
COC(=O)c1ccc(NC(=O)c2ccc3nc(C)sc3c2)cc1,0,-15,-0.1,-4.6,i,4,10,0.1,0.69,-17
Cn1c(=O)c(=O)n(C)c2cc(S(=O)(=O)N3CCc4ccccc43)ccc21,6,-1,0.8,0.6,.,.,.,.,0.68,.
Brc1ccc(OCCN2CCOCC2)cc1,-20,-4,-0.1,1.4,i,4,1,-1.7,0.67,2.0
CC(=O)Oc1c(I)cc(I)cc1C(=O)Nc1ccc(Cl)cc1,106*,-13,-2.5,.,i,-58,-75,-17,.,-3.7
CCOC(=O)NC(=O)c1cn(Nc2ccccc2C(F)(F)F)c(=O)[nH]c1=O,-5,-13,-1.0,6.1,i,15,14,0.8,0.66,0.1
C=CC[C@H](CC(=O)N(CCO)Cc1ccccc1)C(=O)N[C@H](COC(=O)[C@H](CC=C)CC(=O)OC(C)(C)C)Cc1c[nH]c2ccccc12,.,.,.,-1.1,i,6,14,-3.5,0.74,1.7
O=C(CSc1cn(CCNC(=O)c2ccccc2)c2ccccc12)NCc1ccco1,-9,-17,0.1,2.2,i,4,-8,5.2,0.77,-15
COc1cccc(C(=O)NCCS(=O)(=O)NC(C)CCc2ccccc2)c1 (centres undefined),3,9,-0.6,2.0,i,-6,-31,3.8,0.66,-2.2
Cc1ccnc(SCCn2c(N3CCCCC3)nc3c2c(=O)n(C)c(=O)n3C)n1,1,19,0.3,0.9,i,-9,-11,-8.8,0.59,-12
NC(=O)NC(=O)C(Nc1ccc2c(c1)CCC2)c1ccccc1 (centres undefined),0,1,-0.2,.,i,-4,-12,0.5,.,7.1
COc1ccccc1C(=O)NNc1ncc(C)s1,-8,-1,0.2,0.2,i,5,1,2.5,0.67,0.0
CC(=O)C1=C(C)Nc2ncnn2C1c1ccc(C)cc1 (centres undefined),4,-12,-0.6,4.1,i,8,7,0.8,0.65,1.1
N#C/C(=C/c1cn(-c2ccccc2)nc1-c1cccc(OCc2ccccc2)c1)C(=O)NCCCn1ccnc1,4,60*,-0.2,-43,.,.,.,.,0.64,.
Clc1ccc(NC2=NCCCCC2)cc1,-2,15,0.6,3.7,.,.,.,.,0.71,.
O=C(CC1C(=O)OCC2CCCCN21)Nc1ccccc1C(F)(F)F (centres undefined),-5,-8,0.4,-1.5,.,26,20,1.0,0.7,0.3
COc1cc(CN2CCNC(=O)C2CC(=O)N(C)CCC2CCOCC2)cc(OC)c1 (centres undefined),.,-19,-0.4,-4.8,i,6,14,0.7,0.62,0.6
CCCn1nc(C(=O)OCC(=O)NC(C)c2ccccc2)c2ccccc2c1=O (centres undefined),-4,2,0.3,3.3,i,9,1,-0.9,0.73,1.6
CCCN1C2CCCC1CC(NC(=O)c1cccc([N+](=O)[O-])c1)C2 (centres undefined),-7,9,0.7,1.2,i,-3,6,-4.7,0.64,-0.3
Cc1cc(N2C(=O)C(O)=C(C(=O)c3cccs3)C2c2ccccc2)no1 (centres undefined),-3,-20,-0.9,8.7,.,.,.,.,0.66,.
COc1ccc(-c2csc(NC(=O)c3nc(-c4ccccc4)oc3C)n2)cc1,-5,11,0.7,2.1,.,.,.,.,0.77,.
COc1c([N+](=O)[O-])c(=O)n(-c2ccccc2)c2ccccc12,8,5,0.3,2.4,i,-1,-10,-6.9,0.64,-43
Cc1nc(S/C(=C/c2ccc(OCc3ccc(C(=O)O)cc3)cc2)C(=O)O)n[nH]1,-2,1,0.8,14,+,1,0,-2.0,0.65,-4.6
COc1ccc(S(=O)(=O)N2CCC(C)CC2)cc1Br,0,18,0.1,0.7,.,.,.,.,0.71,.
Cc1ccccc1CNC(=O)CC1C(=O)NCCN1CC1CCCCC1 (centres undefined),-5,33,0.3,1.4,i,-18,-32,1.8,0.71,3.2

# Shown as a hit in FGF22 binding (from the list above):
Structure,UCH37 DUB inh,FGF22 binding,rRNA inh HTS,rRNA inh HTS OD600,rRNA inh HTS RFP,E coli growth,AF4-AF9 inh
COc1cccc(NC(=O)CN(C)C(=O)c2ccc(NC3CC3)c([N+](=O)[O-])c2)c1,3.4,+,-8,-18,3.4,0.63,3.5
Cc1nc(S/C(=C/c2ccc(OCc3ccc(C(=O)O)cc3)cc2)C(=O)O)n[nH]1,14,+,1,0,-2.0,0.65,-4.6

# Following part.
SMILES,Beta apoptosis,T cruzi repl,A1 inh,UCH37 DUB inh,FGF22 binding,rRNA inh HTS,rRNA inh HTS OD600,rRNA inh HTS RFP,E coli growth,AF4-AF9 inh
CC1CN(c2nc(-c3ccccc3)nc3ccccc23)CC(C)O1 (centres undefined),-6,-4,0.2,-6.2,i,1,2,-3.8,0.65,-1.0
CCCC(=O)Nc1ccc(C(=O)NNC(=O)c2cccc([N+](=O)[O-])c2)cc1,-1,-2,0.0,0.3,i,11,10,4.4,0.69,0.2
O=C(NCCN1CCOCC1)c1ccc2c(c1)N(Cc1ccc(Cl)cc1)CCS2,0,12,0.6,-391,i,-2,4,3.5,0.7,0.5
CCN(CC)S(=O)(=O)c1ccc(NC(=O)COC(=O)c2c[nH]c(=O)[nH]c2=O)cc1,-2,-11,0.1,2.1,i,4,11,12,0.67,-2.5
COc1ccccc1C1CCN(C(=O)c2ccco2)CC1,-2,9,0.5,3.4,i,-23*,2.6*,0.6*,0.64,-0.9
COc1ccc(C(=O)NC(=S)Nc2ccc(CN3CCOCC3)cc2)cc1Cl,1,-6,0.2,1.0,i,-7,-41,-5.4,0.64,6.5
CC(=O)C[C@H]1c2cc(C(F)(F)F)ccc2S(=O)(=O)N1c1ccc(N(C)C)cc1,-2,10,0.8,2.4,i,-12,-5,0.6,.,2.5
O=C(Nc1nc2ccccc2[nH]1)c1ccc(Cl)cc1,24,-3,-9.0,-20,i,-67,-76,-20,0.66,1.8
O=C1N=C(N2CCCCC2)S/C1=C\c1ccc(Cl)cc1,-7,3,-0.5,0.6,i,12,8,2.8,0.69,2.6
O=C(C(=O)N1CCN(c2ccccc2Cl)CC1)c1c[nH]c2ccccc12,7,10,-1.3,3.7,i,-53,-75,-19,0.69,0.4
COc1cccc(=O)c2c(C)n(C)c(C)c12,-3,-4,0.8,1.1,.,.,.,.,0.71,.
CC(Oc1ccc2c(-c3ccccc3)cc(=O)oc2c1)C(=O)NCCCN1CCOCC1 (centres undefined),1,-11,-0.8,1.7,i,-1,-1,1.7,0.65,-11
COc1ccc(CCNC(=O)C2CCC(CNS(=O)(=O)c3ccccc3)CC2)cc1OC (centres undefined),-5,1,1.6,0.3,.,.,.,.,0.71,.
CCOc1ccc(NC(=O)[C@@H](NC(=O)c2ccccc2Br)C(C)C)cc1,3,33,-1.0,4.1,.,.,.,.,0.74,.
COc1ccc(NC(=S)Nc2ccc(N)c([N+](=O)[O-])c2)cc1,5,35,0.2,3.5,.,.,.,.,0.72,.
CC(C)[C@H](NC(=O)c1ccccc1)C(=O)OCC(=O)c1c(N)n(C)c(=O)n(C)c1=O,-3,.,0.3,-1.7,i,7,4,0.8,0.72,-0.3
CC(=O)Nc1ccc(-c2csc(NC(C)c3ccccc3)n2)cc1 (centres undefined),0,20,-0.3,2.6,i,6,5,5.4,0.68,1.1
CCOc1ccc(NC(=O)CN(C)C(=O)Cc2c[nH]c3ccccc23)cc1OCC,-1,-4,0.1,-1.8,i,6,1,0.9,0.68,2.4
Cc1cccnc1NC(=O)Cn1nc([N+](=O)[O-])cc1C,-3,-4,1.3,4.9,i,11,1,0.6,0.67,-9.5
COc1ccc2c(c1)C(C1C(=O)CCCC1=O)c1ccccc1O2 (centres undefined),-3,-28,-0.4,-0.2,.,.,.,.,0.66,.
O=C(Nc1ccccc1N1CCCC1)c1ccc(Cl)cc1Cl,2,-2,0.4,5.2,i,-5,8,3.6,0.71,-13
CCOC(=O)c1c(C)c(C(=O)NCc2cccs2)c(C)n1C,-5,-4,1.1,2.3,.,.,.,.,0.64,.
O=C(CSc1nnc(-c2ccco2)n1-c1ccccc1)NCc1ccco1,3,12,0.7,4.7,.,.,.,.,0.72,.
COC(=O)CSc1ccnc2cc(Cl)ccc12,.,3,0.2,3.7,i,-6,-2,2.1,0.59,-4.0
NC(=O)C1CCN(C(c2ccccc2Cl)c2nnnn2Cc2ccc3c(c2)OCO3)CC1 (centres undefined),.,-1,-0.9,-1.7,.,.,.,.,0.71,.

# Screens (PubChem BioAssay)
